# Screens deposited in PubChem BioAssay by National Center for Advancing Translational Sciences (NCATS).
# D2 agonist: human D2 receptor agonism in beta-arrestin assay; P14416; DiscoveRx PathHunter D2 beta-arrestin, luminescence, 90 min; 100% = 57 uM dopamine signal; activation, % (concentration not given with the values); 360,000 tested, 0.084% active; AID 624465; in the data active = activation above about 40%; inconclusive = about 15% to 40%; inactive = below about 15%; also: compound concentration not given in the record; the text of the record calls up to 30% inactive
# Target sequence (P14416 whole entry, looked up): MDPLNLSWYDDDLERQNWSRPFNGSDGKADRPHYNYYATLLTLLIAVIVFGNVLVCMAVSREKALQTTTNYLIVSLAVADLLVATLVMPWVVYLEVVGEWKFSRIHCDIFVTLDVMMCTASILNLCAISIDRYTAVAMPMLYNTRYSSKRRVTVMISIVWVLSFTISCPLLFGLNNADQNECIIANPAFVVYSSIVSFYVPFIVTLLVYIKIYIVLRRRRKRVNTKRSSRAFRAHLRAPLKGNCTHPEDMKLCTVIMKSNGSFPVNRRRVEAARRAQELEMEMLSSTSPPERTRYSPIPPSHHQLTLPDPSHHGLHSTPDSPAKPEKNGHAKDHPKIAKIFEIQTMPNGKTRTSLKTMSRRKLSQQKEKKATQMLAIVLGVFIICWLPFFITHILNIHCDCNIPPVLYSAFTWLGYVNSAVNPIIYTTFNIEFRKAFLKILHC
#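 Agonist mode: compounds alone added to overnight-plated D2 PathHunter cells for 90 min at 37 C, with 57 uM final dopamine (EC100) defining full response. Beta-arrestin recruitment detected by chemiluminescent reagent, read after 1 h at ambient temperature.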
# PINK1 modulator: changes PINK1 expression | PINK1 immunofluorescence, high-content cytometry, 24 h | Potency, µM (series often up to 76.6 µM), for the others: at the highest dose activation (PINK1 increase), most hits filed as activators | 410,000 tested, 0.2% active; active = well fitted activation curve with a large enough effect; inconclusive = small, poorly fitted or top-dose-only effect; inactive = flat fitted curve, though single readings scatter; cell line not stated here;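 also: potency is read from the fitted curve at half-maximal effect; % of control where 0% means no effect; nearly all actives have a fitted effect of over 65% in size; a mitochondrial uncoupler was the plate control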
#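 Measures PINK1 amount and localization on or inside mitochondria by immunofluorescence. Stable cells get compounds at 5 concentrations for 24 hours before fixation and staining; CCCP controls included.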
# TRPML1 blocker: human mucolipin-1 channel inhibition; Q9GZU1; TRPML1-inducible cells, Ca2+ dye fluorescence, FDSS; stronger effect = lower value; inhibition of EC80 agonist-evoked calcium signal; activity change, negative = inhibition, % (concentration not given with the values); 390,000 tested, 0.02% active; AID 624415; in the data active means activity change below about -50%; inconclusive means about -30% to -50%; inactive means above about -30%;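 also: stimulus is agonist 54-4 at its EC80 concentration; % is scaled to controls: 0 for no effect and ±100 for the full control effect; compound concentration not given in the record; the text of the record puts the active cut at -80%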
# Target sequence (Q9GZU1 whole entry, looked up): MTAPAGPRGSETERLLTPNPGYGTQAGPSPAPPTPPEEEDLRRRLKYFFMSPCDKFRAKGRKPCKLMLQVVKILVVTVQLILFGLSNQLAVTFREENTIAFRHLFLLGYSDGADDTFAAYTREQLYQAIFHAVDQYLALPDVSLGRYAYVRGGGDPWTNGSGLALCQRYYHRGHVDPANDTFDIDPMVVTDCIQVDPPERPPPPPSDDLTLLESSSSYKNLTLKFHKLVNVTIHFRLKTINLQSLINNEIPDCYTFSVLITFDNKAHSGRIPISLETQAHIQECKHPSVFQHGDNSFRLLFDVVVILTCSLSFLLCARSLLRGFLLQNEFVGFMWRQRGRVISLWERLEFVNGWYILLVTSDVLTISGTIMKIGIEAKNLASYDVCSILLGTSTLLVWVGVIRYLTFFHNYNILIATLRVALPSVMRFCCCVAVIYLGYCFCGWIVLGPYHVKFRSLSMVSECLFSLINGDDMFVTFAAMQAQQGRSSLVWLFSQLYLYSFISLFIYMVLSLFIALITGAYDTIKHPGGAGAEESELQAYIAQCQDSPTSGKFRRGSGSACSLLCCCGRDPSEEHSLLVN
#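 Tet-induced TRPML1-DL cells loaded with Ca8 no-wash calcium dye were read kinetically on FDSS. Compound addition was followed by EC80 agonist 54-4 (4 uM final); inhibition was read over 110 s.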
# Six1-Eya2 inh: inhibitors of human Six1/Eya2 interaction; Q15475+O00167; AlphaScreen GST-Six1/His-Eya2 binding, biochemical; stronger effect = lower value; control for the full effect not named in the record; activity change, % (test concentration not listed); 360,000 tested, 0.56% active; AID 651725; in the data active = activity change below about -65%; inconclusive = about -30% to -65%; inactive = above about -30%; also: % is scaled to controls: 0 for no effect and ±100 for the full control effect; compound concentration not given in the record
#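 AlphaScreen with GST-Six1 and His-Eya2 (5X mix: 250 nM and 500 nM), glutathione donor and nickel acceptor beads; buffer 50 mM Tris pH 8.0, 300 mM NaCl, 1 mM TCEP; 1 h at 37 C in the dark.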
# CtBP-E1A blk: inhibitors of CtBP/E1A interaction; AlphaScreen GST-E1A/His-CtBP binding, 1536-well; stronger effect = lower value; control for the full effect not named in the record; activity change, % (concentration not given with the values); 340,000 tested, 0.49% active; in the data active means activity change below about -65%; inconclusive means about -30% to -65%; inactive means above about -30%; also: % is scaled to controls: 0 for no effect and ±100 for the full control effect
#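 AlphaScreen with 125 nM GST-E1A and 125 nM His-CtBP (5X stocks) in Tris pH 8.0, 300 mM NaCl, BSA, Tween 20, TCEP. Compounds preincubated 2 h at 37 deg C, then glutathione donor/nickel acceptor beads added for 1 h at 37 deg C in dark.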
# TRPML1 agonist: human mucolipin-1 channel agonism; Q9GZU1; 410,000 tested, 0.12% active; TRPML1-expressing cells, Ca2+ dye fluorescence, FDSS; host cell line not named in the record; reference of the full effect not given here; activation, % (test concentration not listed); AID 624414; in the data active = activation above about 50%; inconclusive = about 30% to 50%; inactive = below about 30%; also: 0% is about no effect; the text of the record puts the active cut at 80%
#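 Calcium fluorescence on an FDSS kinetic reader gave the read-out. Tet-induced TRPML1-DL cells were plated overnight, dye-loaded (Ca8 with quencher, 45-90 min, room temperature, dark), then read 110 s after compound addition, and again 110 s after 4uM final 54-4 (EC80).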
# The depositor's hits bear a star; ? = inconclusive; · = no result given; [ ] = remark or other dose.
SMILES,D2 agonist,PINK1 modulator,TRPML1 blocker,Six1-Eya2 inh,CtBP-E1A blk,TRPML1 agonist
CCN(C(=O)CCS(=O)(=O)c1cc2c(cc1Cl)NC(=O)CO2)c1ccccc1,-2.3,0.3%,1,1,-8,0.3
CCS(=O)(=O)N1CCCC(C(=O)NCCN(C)Cc2ccccc2)C1 (centres undefined),-2.5,5.4%,0,2,5,-0.7
COc1ccc(-c2nnnn2-c2ccc(F)cc2F)cc1,-1.8,-0.7%,-6,7,-23,-0.4
Cc1ccc(S(=O)(=O)N(C)C)cc1NC(=S)NC(=O)C12CC3CC(CC(C3)C1)C2,1.3,-0.6%,19,-3,12,0.0
O=C(N/N=C/c1ccc(O)cc1O)C(=O)N/N=C/c1ccc(O)cc1O,9.7,3.3%,-5,-68*,-92*,5.5
COc1ccc(-c2nnn(CC(=O)N(Cc3ccco3)C(C(=O)NCC3CCCO3)c3ccco3)n2)cc1 (centres undefined),-2.0,2.9%,1,2,0,-0.3
O=C(CSc1nc(=O)n(CCCN2CCOCC2)c2c1CCCC2)Nc1ccc(Cl)cc1,-2.7,-1.2%,10,-1,-5,0.7
COc1cccc(C2C=C(c3ccc(C)cc3)Nc3c(C(=O)Nc4ccc(F)cc4)cnn32)c1OC (centres undefined),·,0.2%,-1,·,·,-0.8
O=C(NCC1CCCCC1)c1cc(S(=O)(=O)N2CCCCC2)ccc1N1CCOCC1,-4.8,1.8%,50,3,2,0.2
CCC1CCCCN1C(=O)Cn1c(=O)n(CCCCCC(=O)NCc2ccccc2Cl)c(=O)c2sccc21 (centres undefined),·,0.2%,-5,·,·,0.7
CC(C)(C)OC(=O)N1CCC(c2nnc(SCc3ccccc3Cl)o2)CC1,·,2.1%,18,·,·,1.3
COc1cc(S(=O)(=O)NCCc2c(C)[nH]c3ccccc23)c(C)cc1C,·,2.6%,-1,·,·,-0.6
COc1ccc(C2/C(=C(\O)c3ccc4c(c3)CC(C)O4)C(=O)C(=O)N2Cc2cccnc2)c(OC)c1 (centres undefined),4.1,2.9%,4,2,1,-0.2
O=C(COC(=O)c1c(Cl)cccc1Cl)NCC1CCCO1 (centres undefined),-2.5,1.5%,-15,-10,2,0.0
CCCNC(=O)c1c(O)c2cccc3c2n(c1=O)CCC3,-0.4,-0.9%,13,-8,-9,-0.5
CCc1ccc(C(O)(CNCc2ccccc2)c2ccccc2)cc1 (centres undefined),-0.7,?,19,23,·,1.7
Cc1ccccc1Cn1c(=O)n(CC2CCC(C(=O)N3CCOCC3)CC2)c(=O)c2sccc21 (centres undefined),·,0.6%,-3,·,·,0.9
Cc1ccc(C2(C)NC(=O)N(CC(=O)NC3CCCCC3)C2=O)cc1 (centres undefined),-1.6,0.9%,4,-10,9,-0.7
Cc1ccc(CC(CC(=O)O)C(=O)Nc2ccc(Cl)cc2)cc1 (centres undefined),-1.8,0.6%,·,7,·,·
COc1ccc(-c2nc(C)c(CCNS(=O)(=O)c3ccc(F)cc3)s2)cc1OC,·,-0.4%,17,·,·,1.6
CSc1nc2ccc(NS(=O)(=O)c3ccc(Cl)s3)cc2s1,-1.7,-5.4%,14,5,-2,1.0
Nc1ccc(Nc2nc3ccccc3[nH]2)cc1,?,0.7%,0,-22,-22,-0.3
Cc1c(C(=O)N(Cc2ccccc2)C(C)C)cnn1-c1ccccc1,-0.3,1.3%,-4,6,·,1.6
CCN(C(=O)CSc1ncccn1)C1CCS(=O)(=O)C1 (centres undefined),-0.9,1.2%,1,2,4,0.6
CCC(=O)NCCCc1nc(-c2ccccc2)no1,-4.5,0.7%,-11,5,·,0.1
Cc1ccc(S(=O)(=O)NNC(=O)CCC(=O)Nc2ccc(C)cc2C)cc1,-0.7,0.8%,-5,26,2,1.6
Cc1ccc(CN(C(=O)c2cccs2)C2CCS(=O)(=O)C2)cc1 (centres undefined),-0.6,1.4%,12,10,3,0.0
O=C(CCSc1ccc(Cl)c(Cl)c1)NC12CC3CC(CC(C3)C1)C2,-2.0,-4.3%[38.3 µM],28,20,21,3.0
O=C(N/N=C/c1ccc(C(=O)O)cc1)C1=NNC(c2ccccc2)(c2ccccc2)C1,-13,3.0%,7,5,·,0.8
Cc1ccc(Nc2ncccc2C(N)=O)cc1[N+](=O)[O-],2.6,1.5%,8,-3,1,-1.0
CCOC(=O)c1sc(NC(=O)CSc2nc3ccccc3o2)c(C(=O)OCC)c1C,0.2,5.0%,-10,7,2,0.1
Cc1cccc(OCC(=O)Nc2ccc(-c3nc4ccccc4o3)cc2)c1C,·,4.2%,7,·,·,1.0
COc1ccc(-c2cc(C(F)F)n3ncc(C(=O)N4CCc5ccccc54)c3n2)cc1,3.7,5.2%,-4,-9,·,1.2
COc1ccc(-c2csc(N(CCCN(C)C)C(=O)c3cc(OC)c(OC)c(OC)c3)n2)cc1,-6.8,-0.4%,-5,-12,-25,-0.1
OC(CN1CCN(Cc2ccccc2)CC1)Cn1c2ccccc2c2ccccc21 (centres undefined),-2.3,-1.4%,-26,-13,-20,-0.3
CC1=C(C)CC(C(=O)N2CCN(Cc3ccccc3)CC2)C(C(=O)O)C1 (centres undefined),-3.6,-1.3%,-11,-2,-2,0.0
O=C(CCN1C(=O)C2CC=C(Cl)CC2C1=O)NCc1ccco1 (centres undefined),-5.2,-2.2%,26,-3,10,-0.6
Cc1ccc(S(=O)(=O)/N=C(/Nc2ccc(F)cc2F)c2ccc(F)cc2)cc1,-0.3,3.3%,-1,4,4,-1.3
CN1CCN(C(CNC(=O)c2c(F)cccc2F)c2ccc3c(c2)OCO3)CC1 (centres undefined),·,-1.7%,-2,·,·,1.0
COc1ccc(N2C(=O)CSC23C(=O)N2CCCc4cccc3c42)cc1 (centres undefined),-0.7,-3.2%[38.3 µM],-8,-1,0,-0.7

# Compounds shown so far containing an NH in an aromatic ring:
SMILES,D2 agonist,PINK1 modulator,TRPML1 blocker,Six1-Eya2 inh,CtBP-E1A blk,TRPML1 agonist
COc1cc(S(=O)(=O)NCCc2c(C)[nH]c3ccccc23)c(C)cc1C,·,2.6%,-1,·,·,-0.6
Nc1ccc(Nc2nc3ccccc3[nH]2)cc1,?,0.7%,0,-22,-22,-0.3

# Four of the compounds above, as labelled records:
smiles: CCOC(=O)c1sc(NC(=O)CSc2nc3ccccc3o2)c(C(=O)OCC)c1C
- D2 agonist = 0.2
- PINK1 modulator = 5.0%
- TRPML1 blocker = -10
- Six1-Eya2 inh = 7
- CtBP-E1A blk = 2
- TRPML1 agonist = 0.1

smiles: Cc1cccc(OCC(=O)Nc2ccc(-c3nc4ccccc4o3)cc2)c1C
- D2 agonist = ·
- PINK1 modulator = 4.2%
- TRPML1 blocker = 7
- Six1-Eya2 inh = ·
- CtBP-E1A blk = ·
- TRPML1 agonist = 1.0

smiles: COc1ccc(-c2cc(C(F)F)n3ncc(C(=O)N4CCc5ccccc54)c3n2)cc1
- D2 agonist = 3.7
- PINK1 modulator = 5.2%
- TRPML1 blocker = -4
- Six1-Eya2 inh = -9
- CtBP-E1A blk = ·
- TRPML1 agonist = 1.2

smiles: COc1ccc(-c2csc(N(CCCN(C)C)C(=O)c3cc(OC)c(OC)c(OC)c3)n2)cc1
- D2 agonist = -6.8
- PINK1 modulator = -0.4%
- TRPML1 blocker = -5
- Six1-Eya2 inh = -12
- CtBP-E1A blk = -25
- TRPML1 agonist = -0.1

# Following part.
SMILES,D2 agonist,PINK1 modulator,TRPML1 blocker,Six1-Eya2 inh,CtBP-E1A blk,TRPML1 agonist
COc1ccc(CNC(=O)C2=C(C)C(=O)OC23CCCCC3)cc1,·,0.3%,-6,·,·,2.1
CC1C(c2ccccc2)OCCN1C(=S)NC(=O)c1ccccc1 (centres undefined),-1.5,0.9%,0,-3,8,-0.3
c1csc(C2C3=C(Nc4ncnn42)c2ccccc2OC3)c1 (centres undefined),-4.3,-1.9%,32,-9,-7,0.2
COc1cccc(-n2c(SCC(=O)NCc3ccco3)nnc2-c2c[nH]c3ccccc23)c1,1.6,-2.4%,-3,-2,0,0.0
Cc1nnc(NC(=O)C2CC(=O)N(C(C)c3ccccc3)C2)s1 (centres undefined),-0.7,1.3%,2,-3,9,0.2
COc1ccc(N(C(=O)c2csnn2)C(C(=O)NC2CCCC2)c2ccccc2)cc1 (centres undefined),-4.5,1.8%,0,8,-8,-0.4
CN(C)c1ccc(NC(=O)CSc2nnc(-c3cccs3)n2Cc2ccco2)cc1,1.9,-0.4%[38.3 µM],12,?,?,5.2
CCOc1ccc(C(=O)NNC(=O)c2cc(S(=O)(=O)N3CCOCC3)ccc2Cl)cc1,2.8,0.7%,-6,5,8,1.7
Cc1cc(NC(=O)c2cncc(Br)c2)ccc1NC(=O)c1cc2ccccc2o1,-0.2,2.0%,26,1,2,0.5
CCOC(=O)C(=O)Nc1ccc(OCc2ccccc2)cc1,-0.4,1.3%,-3,-6,6,-0.7
CCOC(=O)c1ccccc1NC(=O)CSc1ccccc1,-4.5,7.9%,2,23,47,1.6
Cc1ccc(OCCNc2ccc(C(F)(F)F)cc2[N+](=O)[O-])cc1,-1.0,8.2%,-16,11,22,0.3
CCn1c2c(c(=O)n3ncc(C(=O)N4CCN(c5ccc(Cl)cc5)CC4)c13)CN(Cc1ccc(OC)cc1)CC2,·,0.2%,6,·,·,1.5
CCCCc1c(O)c2ccccc2n(CCCC)c1=O,-2.1,-2.6%,-17,-7,2,-0.9
Cc1cnc([N+](=O)[O-])n1CCOC(=O)NC(=O)c1cccc(F)c1,-0.3,-1.6%,13,-4,1,0.0
O=[N+]([O-])c1ccc(N2CCN(Cc3ccc([N+](=O)[O-])o3)CC2)cc1,11,-1.1%,10,5,2,-0.6
Cc1ccc(C)c(N2CCN(S(=O)(=O)c3ccc4[nH]c5c(c4c3)CCCCC5)CC2)c1,·,8.4%,20,·,·,1.1
CC1=C(C(=O)Nc2ccc(C(=O)N3CCN(c4ccccc4F)CC3)cc2)SCCO1,-6.1,-2.0%,2,-3,-9,1.2
CCCCc1nc2ccccc2c(=O)n1NC(=O)c1c(O)c2cccc3c2n(c1=O)CC3,-0.6,3.8%,-3,4,5,-0.9
O=C(NC1CCN(S(=O)(=O)c2ccc(Cl)cc2)CC1)C1CCCCC1,0.1,1.2%,6,27,2,-0.2
O=C(COc1ccc(Cl)cc1)Nc1ncc([N+](=O)[O-])s1,-12,16µM*,12,0,2,0.6
O=C(c1cc(C2CC2)nn1-c1ccccc1)N1CCN(c2ccc(O)cc2)CC1,7.4,1.7%,24,-16,-10,0.8
COc1cc(O)cc(/C=C/c2ccccc2)c1,1.0,3.2%,15,-7,-17,-0.1

# Single records, as listed above. Values in the order: D2 agonist, PINK1 modulator, TRPML1 blocker, Six1-Eya2 inh, CtBP-E1A blk, TRPML1 agonist
# Entry for `Cc1cnc([N+](=O)[O-])n1CCOC(=O)NC(=O)c1cccc(F)c1` → -0.3, -1.6%, 13, -4, 1, 0.0
# Entry for `OC(CN1CCN(Cc2ccccc2)CC1)Cn1c2ccccc2c2ccccc21` (centres undefined) → -2.3, -1.4%, -26, -13, -20, -0.3
